# HepG2 viability: viability loss in HepG2 hepatoma cells – cell-based, ATP luminescence, cherry-pick, activator set 2, cytotoxicity control, dose response (AID 1053143); HepG2 viability, CellTiter-Glo ATP luminescence, 72 h; activity change, negative = cytotoxicity, % at the top dose, mostly 26 µM; hits show AC50 in µM; 3.7% of 3,400 active;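 active = fitted AC50 at most twice the highest valid dose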;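 note: 0 = neutral control and -100 = positive control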
# The depositor's hits bear a star; [ ] = dose if it differs, or a comment. Not all compounds are listed (hit frequency here may not be typical).
# The opening 22 compounds, ahead of the listing:
SMILES,HepG2 viability
O=C1CCCC2=C1C(c1ccc(Cl)cc1)n1c(s/c(=C\c3ccc4ccncc4c3)c1=O)=N2 (stereo unspecified),-15%
COc1ccc(C2C(CC(=O)O)=C(Nc3ccccc3)C(=O)N2c2ccccc2)cc1 (stereo unspecified),-17%
COc1ccc(NC(=O)c2ccc3c(c2)N(C)CCS3)cc1,1%
CCOc1ccc(NC(=O)CCCCn2c(=O)[nH]c3ccsc3c2=O)cc1,-10%
Cn1nc(-c2ccc(Cl)cc2)cc1NC(=O)CC(C)(C)CC(=O)O,0%
Cc1ccccc1-c1nnc(-c2ccc(Br)cc2)o1,-13%
NS(=O)(=O)c1ccc(CCNC(=O)c2ccccc2Cc2ccccc2)cc1,-17%
CCc1ccc(CN(C)CC(=O)Nc2ccc3c(c2)CCC3)cc1,7%
CCOC(=O)c1ccc(NC(=O)C2CC3CCC2C3)cc1 (stereo unspecified),0%
Brc1ccc(-c2cn3ccccc3n2)cc1,-14%
Cn1cc(CNCc2cn[nH]c2-c2ccc(F)cc2)c(-c2ccc3c(c2)OCCO3)n1,-22%
Cn1c(-c2cc3ccc(OC(=O)C(C)(C)C)cc3oc2=O)nc2ccccc21,0%
CCOc1cccc(C(=O)Nc2ccc3c(c2)OCCO3)c1,-1%
O=C(Nc1cccnc1N1CCOCC1)c1ccco1,-8%
COc1ccc2[nH]c(-c3ccccc3)cc2c1,-13%
O=C(/C=C/c1ccc(Br)o1)Nc1nccs1,0%
O=C(CCCOc1ccc(Cl)cc1)Nc1cccc(C(=O)O)c1,6%
CC(=O)Nc1cc2nn(-c3ccccc3)nc2cc1Cl,5µM*
Oc1oc(-c2ccc(Br)cc2)nc1/C=N/c1ccccn1,-2%
CC(=O)c1ccc(NC(=O)C2(c3ccccc3)CCOCC2)cc1,-2%
O=C(CCOc1ccccc1)N1CCN(c2ccc(O)cc2)CC1,-20%
N/C(=N\OC(=O)c1ccc(F)cc1)c1ccc(Br)cc1,9%

# All compounds of this part, from the first entry:
SMILES,HepG2 viability
O=C1CCCC2=C1C(c1ccc(Cl)cc1)n1c(s/c(=C\c3ccc4ccncc4c3)c1=O)=N2 (stereo unspecified),-15%
COc1ccc(C2C(CC(=O)O)=C(Nc3ccccc3)C(=O)N2c2ccccc2)cc1 (stereo unspecified),-17%
COc1ccc(NC(=O)c2ccc3c(c2)N(C)CCS3)cc1,1%
CCOc1ccc(NC(=O)CCCCn2c(=O)[nH]c3ccsc3c2=O)cc1,-10%
Cn1nc(-c2ccc(Cl)cc2)cc1NC(=O)CC(C)(C)CC(=O)O,0%
Cc1ccccc1-c1nnc(-c2ccc(Br)cc2)o1,-13%
NS(=O)(=O)c1ccc(CCNC(=O)c2ccccc2Cc2ccccc2)cc1,-17%
CCc1ccc(CN(C)CC(=O)Nc2ccc3c(c2)CCC3)cc1,7%
CCOC(=O)c1ccc(NC(=O)C2CC3CCC2C3)cc1 (stereo unspecified),0%
Brc1ccc(-c2cn3ccccc3n2)cc1,-14%
Cn1cc(CNCc2cn[nH]c2-c2ccc(F)cc2)c(-c2ccc3c(c2)OCCO3)n1,-22%
Cn1c(-c2cc3ccc(OC(=O)C(C)(C)C)cc3oc2=O)nc2ccccc21,0%
CCOc1cccc(C(=O)Nc2ccc3c(c2)OCCO3)c1,-1%
O=C(Nc1cccnc1N1CCOCC1)c1ccco1,-8%
COc1ccc2[nH]c(-c3ccccc3)cc2c1,-13%
O=C(/C=C/c1ccc(Br)o1)Nc1nccs1,0%
O=C(CCCOc1ccc(Cl)cc1)Nc1cccc(C(=O)O)c1,6%
CC(=O)Nc1cc2nn(-c3ccccc3)nc2cc1Cl,5µM*
Oc1oc(-c2ccc(Br)cc2)nc1/C=N/c1ccccn1,-2%
CC(=O)c1ccc(NC(=O)C2(c3ccccc3)CCOCC2)cc1,-2%
O=C(CCOc1ccccc1)N1CCN(c2ccc(O)cc2)CC1,-20%
N/C(=N\OC(=O)c1ccc(F)cc1)c1ccc(Br)cc1,9%
Cc1c(C(=O)OCC(=O)NCC2CCCO2)cccc1[N+](=O)[O-] (stereo unspecified),15%
O=C1c2ccccc2NC(c2ccccn2)N1NS(=O)(=O)c1ccccc1 (stereo unspecified),-16%
CCOc1ccc(/C(O)=C2\C(=O)C(=O)N(c3ccc(OC)cc3)C2c2ccccc2[N+](=O)[O-])cc1 (stereo unspecified),-11%

# (continued)
SMILES,HepG2 viability
CCCn1c(N)c(C(=O)CSc2nnc3n2CCCCC3)c(=O)[nH]c1=O,-1%
COC(=O)c1ccc(NC(=O)c2ccco2)cc1,-15%
CCC(=O)Nc1sc(C(=O)Nc2ccccc2)c(C)c1C(=O)OC,26µM*
CCCC(=O)N=C1SC2CS(=O)(=O)CC2N1c1ccc(-c2nc3ccc(C)cc3s2)cc1 (stereo unspecified),-6%[6 µM]
O=C(CSc1nnc2ccccn12)N1CCc2ccccc21,-7%
O=C(Nc1ccncc1)c1cc2ccccc2cc1O,-11%
CCn1nc2cc(C(=O)NCCc3cccs3)ccc2c1OC,1%
Cc1ccc(/C(N)=N/OC(=O)c2cccs2)cc1,-12%
CC(C)(C)c1cc(NC(=O)Nc2ccccc2)no1,-7%
Cc1ccc(SCc2cn3cc(Cl)ccc3n2)cc1,-9%
CCOc1ccc(-c2c(C(=O)N/N=C/c3ccccc3)nnn2-c2nonc2N)cc1,6%
CN(Cc1ccsc1)C(=O)CCc1nnc(CCCc2ccccc2)o1,-10%
CC(C)Sc1ccc(C(=O)Nc2ccc(F)cc2F)cn1,-3%
Cc1cccc(/C=C/c2ccccc2)n1,6%
Nc1c2c(nc3sc4c(c13)CCCC4)-c1ccccc1CC2,2%
COC(=O)Nc1nnc(-c2ccccc2OC)s1,-14%
CC(=O)c1ccc(OCc2ccccc2)c(C)c1O,-7%
CC(=O)c1ccccc1NC(=O)COC(=O)c1c(C)nn(-c2ccccc2)c1C,-5%
Cc1ccc(-c2nc3ccc(Cl)cn3c2Cc2cccc(Cl)c2)cc1,-5%
COc1cc(C(=O)OCC(=O)NC2CCCC2)cc(NC(=O)c2ccco2)c1OC,-9%
Cc1ccc(NC(=O)c2sccc2C)cc1[N+](=O)[O-],-8%
CCC(=O)Nc1cc(NC(=O)CSc2ncc(-c3ccc(F)cc3)n2Cc2ccco2)ccc1C,-14%
Cc1cc(C(=O)Nc2ccc3c(c2)CCC3)ccc1[N+](=O)[O-],-1%
COc1cccc(NC(=O)CN(C)C(=O)c2ccc3c(c2)CC(c2ccccc2)OC3=O)c1 (stereo unspecified),5%
CCC(=O)NCCc1nc2cc(NC(=O)c3ccc(Cl)cc3)ccc2n1C,-17%

# (list continues)
SMILES,HepG2 viability
Cc1cnc(C(=O)OCC(=O)Nc2ccc(OCc3ccccc3)cc2)cn1,4%
Cn1cccc1/C=C1\SC(=O)N(c2ccccc2)C1=O,-9%
COc1cccc(NC(=O)/C=C/c2ccco2)c1,-11%
Cc1occc1C(=O)N/N=C/C(Br)=C\c1ccccc1,-13%
CC(=O)c1ccc(-n2c(SCC(=O)c3c[nH]c4ccccc34)nc3ccccc3c2=O)cc1,-17%
C(=C\n1nnc2ccccc21)/c1ccccn1,-5%
O=C(Nc1nc(-c2ccc3c(c2)OCCO3)cs1)C1CCCC1,-11%
Cn1/c(=N/NC(=O)c2ccccc2Br)sc2ccccc21,-6%
COC(=O)CSc1nc2cc(C)ccc2cc1C#N,1%
Oc1cc(NCc2cccnc2)ccc1-c1nc2ccccc2o1,26µM*
Cc1ccc(N/C=C/c2onc(C)c2[N+](=O)[O-])cc1,-1%
COc1ccc(/C=N/Nc2ccc([N+](=O)[O-])cc2)cc1O,-17%
O=c1c2ccccc2nnn1CSc1nnc2ccccn12,-4%
O=C(O)C(=O)/C(=C\c1cccc(Cl)c1)c1ccc2ccccc2n1,-8%
CC(=O)Nc1cccc(NC(=O)CCCC(=O)O)c1,-3%
COC(=O)c1ccc2c(=O)[nH]c(CSc3nc(C)cs3)nc2c1,20%
COc1ccccc1NC(=O)COc1ccccc1C(=O)c1cnn(-c2ccccc2)c1,5%
O=C(Nc1nnc(-c2ccccc2F)s1)C1CCCO1 (stereo unspecified),14%
Cc1ccc2nc(-c3ccc(NS(=O)(=O)c4ccc(F)cc4)cc3)sc2c1,-13%
Cc1ccsc1C(=O)OCc1cc(=O)n2ccsc2n1,0%
COC(=O)C1CCN(C(=O)/C=C/c2ccc(OC)cc2)CC1,-12%
N/C(=N\OC(=O)c1ccccc1)c1cccnc1,-17%[12 µM]
COc1cccc(C(=O)Nc2nnc(-c3ccccc3)s2)c1OC,-15%
CCCCSc1nsc(NC(C)=O)n1,-11%[12 µM]
CCOC(=O)c1ccc2nc(NC(=O)c3ccco3)sc2c1,26µM*

# Other results follow.
SMILES,HepG2 viability
OCCNc1c2ccccc2nc2c(F)c(F)c(F)c(F)c12,16%
Cn1c(=NN=Cc2ccccc2OCCO)sc2ccccc21,-17%
Clc1cc(Cl)c2nc(N3CCCCC3)sc2c1,4%
O=c1c2ccccc2oc2cc(NCCCN3CCOCC3)ccc12,-7%
O=C(Nc1ccc2c(c1)ncn2C1CCCCC1)c1ccco1,-9%
O=C(Nc1ccccc1)Nc1ccc2ccccc2c1,-2%[12 µM]
CC1(c2ccc(OC(F)F)cc2)NC(=O)N(CC(=O)Nc2cccc(F)c2)C1=O (stereo unspecified),-4%
O=C(c1ccc(-c2ccccc2Cl)o1)N1CCCCCCC1,-1%[6 µM]
c1ccc(-c2nnsc2Sc2ccccn2)cc1,-21%[12 µM]
COc1ccc(C(=O)c2sc(Nc3ccccc3F)nc2N)cc1,28%
CCc1ccc(NC(=O)C(=O)c2ccccc2NC(C)=O)cc1,-1%
Cc1ccc(-n2nnc(-c3cccnc3Cl)n2)cc1,-10%
O=C(Cc1ccccc1)Nc1ccc(NC(=O)c2ccco2)nc1,5%
CC1(C(=O)NS(=O)(=O)c2ccc(C#N)cc2)CCN1C(=O)c1cccc(F)c1 (stereo unspecified),-6%
Nc1nc(-c2ccc3c(c2)CCO3)cs1,-10%
Cc1cccc(NC(=O)c2cc3ccccc3c(=O)o2)n1,4%
O=C(OCCc1ccccc1)c1cc(O)c(O)c(O)c1,-12%
COc1ccc(C(=O)N[C@H](C(=O)Nc2nc3c(s2)CCCC3)C(C)C)cc1,23%
O=C(c1cc(-c2ccccc2)on1)N1CCCCCC1,55%
Cc1ccc(CNc2ccc3c(c2)ncn3C)cc1,0%
O=c1cc(-c2ccccc2)[nH]c2nc3ccccc3n12,26µM*
O=C(Cc1nc2ccccc2[nH]1)c1ccc([N+](=O)[O-])cc1,6%
O=C(Nc1ccccc1)N1CCc2ccccc2C1,0%
CCOc1ccc2c(c1)C(=NNC(=O)c1ccncc1)c1cc(OCC)ccc1-2,26µM*
CCOC(=O)C1CCN(C(=O)/C=C/c2ccccc2)CC1,-14%

# Carrying on.
SMILES,HepG2 viability
COc1ccc(Nc2nc(-c3c[nH]c4ccccc34)cs2)cc1,-19%
COc1ccc(-c2nnc(-c3ccc(C)cc3)o2)cc1,-7%
COc1ccccc1OCc1cc(C(=O)N(C)CCC2CCOCC2)no1,1%
COc1ccccc1C(=O)O/N=C(\N)c1ccc(Cl)cc1,7%
Cc1ccc2oc(-c3cccc(NC(=O)c4ccccn4)c3)nc2c1,-22%[12 µM]
COc1ccc(OC)c(NC(=O)CSc2nnc(C3CCCCC3)n2-c2ccccc2)c1,-11%
CSc1nsc(SCC(=O)Nc2ccc(OC(C)=O)cc2)n1,-2%
COc1c(C(=O)Nc2nccs2)ccc2ccccc12,-9%
CCCCN(C(=O)Cc1cccs1)c1nnc(-c2cccnc2)s1,1%
O=C(Nc1ncc(Cc2cccc(Cl)c2Cl)s1)C1CCCO1 (stereo unspecified),9%
CC/C(=N\NC(=O)c1csc(C)c1C)c1cccs1,-12%
Cc1cc(C)n(CC(=O)O)c(=O)c1[N+](=O)[O-],-1%
CCOC(=O)c1c(CN2CCC(C)CC2)n(C)c2cc(Br)c(OC)cc12,-18%
O=C(COc1cccc2cccnc12)Nc1nccs1,2%
Cc1ccc2nc(-c3ccc(NS(=O)(=O)c4c(C)n(C)c(=O)n(C)c4=O)cc3)sc2c1,-2%
COc1ccccc1N1CCN(/N=C/c2cccc(Cl)c2)CC1,-2%
O=C(Nc1ccc(Cl)cc1)Nc1ccc2c(c1)OCO2,-3%
Cc1c(O)ccc(/C(Cc2ccc3ccccc3n2)=N\O)c1O,-3%
COc1ccc(OC)c(Cc2nnc(CCC(=O)N3CCCCC3c3nccs3)o2)c1 (stereo unspecified),1%
COc1ccc(C(=O)OCC(=O)c2c[nH]c3ccccc23)c(OC)c1,-12%
Cc1csc(NC(=O)c2ccc(C)s2)n1,-1%
O=C(Nc1nc2ccccc2s1)c1ccc(F)cc1,-23%
COc1cccc(-c2nc(CS(=O)(=O)CC(=O)NCCC(C)C)c(C)o2)c1,5%
Cc1cc(C)c(C#N)c(SCc2nnc(-c3ccccc3[N+](=O)[O-])o2)n1,-12%
CN(Cc1ccccc1)S(=O)(=O)c1ccc(Cl)c(C(=O)NCCCN2CCOCC2)c1,-11%

# (continued)
SMILES,HepG2 viability
CSc1ccccc1NC(=O)c1cc2ncc(Br)cn2n1,-8%
O=C(N/N=C/c1ccc(F)cc1)c1ccccc1,2%[6 µM]
O=C(/C=C/c1ccc2c(c1)OCO2)Nc1nncs1,-22%
O=C(/C=C/c1ccc(Cl)cc1Cl)N1CCc2ccccc21,-21%
COc1ccccc1C(=O)Nc1nnc(SCC(=O)NCC2CCCO2)s1 (stereo unspecified),-5%
COc1ccccc1CNC(=O)COc1ccccc1C(=O)c1cnn(-c2ccccc2)c1,-21%
CN(C)C(=O)c1ccc(-c2cc3onc(-c4ccccc4)c3c(=O)n2C)cc1,26µM*
c1ccc2c(c1)NC(c1ccncc1)n1c-2nc2ccccc21 (stereo unspecified),15%
N#Cc1cc2c(nc1SCc1ccccc1)CCCC2=O,-10%
COc1ccc(CNC(=O)Nc2cccc(C)c2)cc1,-3%
COc1ccc(C(=O)COc2ccccc2C#N)cc1,0%

# Assay outcomes (PubChem)
